# Screening data: PubChem, National Center for Advancing Translational Sciences (NCATS)
# VDR inh: blocks the human vitamin D receptor | 400,000 tested, 0.93% active | VDR-SRC2-3 peptide fluorescence polarization, 2 h | Potency, µM, for inactives: max response, negative = inhibition, actives largely listed as inhibitors | P11473; active means well fitted inhibition curve with a large enough effect; inconclusive means small, poorly fitted or top-dose-only effect, or another doubt; inactive means no such curve, though single readings can be large or run the other way; further: series mostly up to about 120 µM
# Target sequence (P11473 whole entry, looked up): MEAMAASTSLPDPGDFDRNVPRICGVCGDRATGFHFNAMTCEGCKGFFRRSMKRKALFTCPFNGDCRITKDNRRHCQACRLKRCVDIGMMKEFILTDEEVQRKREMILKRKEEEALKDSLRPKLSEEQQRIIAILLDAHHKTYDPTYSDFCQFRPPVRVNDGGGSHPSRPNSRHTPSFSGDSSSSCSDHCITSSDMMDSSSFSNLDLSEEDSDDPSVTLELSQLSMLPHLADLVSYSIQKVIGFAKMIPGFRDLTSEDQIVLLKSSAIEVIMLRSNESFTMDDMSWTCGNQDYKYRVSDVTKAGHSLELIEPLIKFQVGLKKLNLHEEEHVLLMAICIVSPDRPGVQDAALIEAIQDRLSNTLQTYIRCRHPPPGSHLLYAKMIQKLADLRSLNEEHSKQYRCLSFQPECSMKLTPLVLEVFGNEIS
#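 Inhibition of the VDR/SRC2-3 peptide interaction is quantified by fluorescence polarization. Compounds (23 nl, pintool) incubate with the reagents for 2 hours at ambient room temperature.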
# Active calls of the source: *; ? = inconclusive; & = joins results of further samples; [ ] = dose if it differs, or a comment. On the % scale 0 is the no-effect control and ±100 the full control effect; potency means the concentration at half of the fitted maximal effect. This is a subset; count on the stated rates, not on these rows.
SMILES,VDR inh
CCC(C)(C)C1CCc2[nH]nc(C(=O)NCc3ccc(OC)cc3)c2C1 (configuration not stated),-21%
CCOc1ccc(-n2c(=O)c3c(C)c(C)sc3n(CC(=O)Nc3ccc(CC)cc3)c2=O)cc1,-15%
COCCCNC(=O)CN(c1cccc(Cl)c1)S(C)(=O)=O,22%
Cc1cccc(C(=O)Nc2cccc(OCc3cc(=O)n4c(C)csc4n3)c2)c1,3%
CC(C)=C1C2CCC1C1C(=O)N(c3nc(-c4ccc(C(C)C)cc4)c(C)s3)C(=O)C21 (configuration not stated),5%
O=C(NC(Cc1ccc(O)cc1)C(=O)N=Nc1c(O)[nH]c2ccccc12)c1ccccc1 (configuration not stated),-5%
CC1CCCN(c2ccc(C(=O)Nc3ccc4c(c3)OCO4)cc2[N+](=O)[O-])C1 (configuration not stated),6%
O=C1NCCN(Cc2ccc(-c3ccccc3)cc2)C1CC(=O)N1CCN(CCO)CC1 (configuration not stated),4%
CCN(CC)S(=O)(=O)c1cccc(-c2nnc(SC(C)C(=O)NCCC3=CCCCC3)o2)c1 (configuration not stated),-1%
O=C(CN1C(=O)C(=O)N(Cc2ccccc2)C1=O)Nc1cc(Cl)cc(Cl)c1,34%[activator]
N#Cc1ccccc1OCCCN1CCC(Cc2ccccc2)CC1,-1%
Cn1cccc1/C=N/NC(=O)c1ccncc1,8%
COc1cccc(-c2noc(C3CCCN(C(=O)Cc4ccccc4)C3)n2)c1 (configuration not stated),7%
CN1CCN(C(=O)/C(=C/c2ccc([N+](=O)[O-])cc2)NC(=O)c2ccccc2)CC1,7%
O=C(NCC1COc2ccccc2O1)c1ccc(NC(=O)C2CCCO2)cc1 (configuration not stated),4%
O=C(COC(=O)C1CCCCC1)Nc1ccc(S(=O)(=O)N2CCOCC2)cc1,-2%
O=[N+]([O-])CC(c1ccccc1)c1c[nH]c2ccccc12 (configuration not stated),1%
CC(NC(=O)OC(C)(C)C)C(=O)NC(CCC(=O)OCc1ccccc1)C(N)=O (configuration not stated),-5%
COc1ccc(NC(=O)Cn2nc(C(=O)O)c3ccccc3c2=O)cc1Cl,3%
CC(=O)c1cccc(NC(=O)C(C)OC(=O)CCN=C2NS(=O)(=O)c3ccccc32)c1 (configuration not stated),1%
O=C(N/N=C/c1ccc([N+](=O)[O-])cc1)c1ccc2nc[nH]c2c1,-4%
Cc1nonc1N1CCN(Cc2cn[nH]c2-c2ccc(F)cc2F)CC1,-6%
COc1ccc(C2(C(=O)NCC3CCCO3)CCOCC2)cc1 (configuration not stated),-6%
C=CCn1c(SCc2c(C)noc2C)nc2sc(C)c(C)c2c1=O,-3%
COc1ccccc1Cc1nc2ccccc2nc1SCC(=O)Nc1ccccc1C(F)(F)F,-1%
# (list continues)
SMILES,VDR inh
CN1CCCC(OC(=O)c2cccc(S(=O)(=O)N3CCCCCC3)c2)C1 (configuration not stated),5%
CCCNC(=O)C1CCN(Cc2cc3ccccc3n2Cc2ccccc2)CC1,-2%
COc1ccc(OCC(=O)Nc2c(C(=O)N3CCN(C)CC3)oc3ccccc23)cc1,-30%
CCCn1nc(C(=O)NNC(=O)c2ccc(C)c(C)c2)c2ccccc2c1=O,-5%
C=CCc1cccc2cc(C(=O)N3CCOCC3)c(=O)oc12,-4%
COC(=O)C1SCC2C(=O)N(Cc3ccc(F)cc3)CC(=O)N21 (configuration not stated),2%
O=C(NC(NNc1ccc([N+](=O)[O-])cc1)(C(F)(F)F)C(F)(F)F)c1ccc(Cl)cc1,79µM*
CCCCCCC(=O)NCC(=O)OCC(=O)c1ccccc1,-11%
C=CCN(c1nc(C)cc(OC)n1)S(=O)(=O)c1ccccc1,-12%
Cc1ccc(S(=O)(=O)N2CCN(Cc3cccnc3)CC2)cc1,2%
COc1ccc(NC2=C(C(C)=O)C(c3ccc(OC)cc3)C(C(C)=O)C(C)(O)C2)cc1 (configuration not stated),9%
COc1cc(CNc2ccc(CNc3ncn[nH]3)cc2)ccc1OCC(=O)NC(C)(C)C,-9%
CSCCC(N=C1NS(=O)(=O)c2ccccc21)C(=O)NCCc1ccccc1 (configuration not stated),-9%
CC(NC(=O)CN1CCN(c2ccccc2F)CC1)c1ccccc1 (configuration not stated),10%
Cn1c2ccccc2c(=O)c2c(=O)n(Cc3ccco3)c(-c3ccc(F)cc3)nc21,-15%
CCNC(=O)COn1c(SCC(=O)NCC)nc2ccccc2c1=O,5%
O=C(COC(=O)c1ccccc1SCC(=O)N1CCCC1)NCc1ccccc1,-1%
COC(=O)c1ccc(Oc2nc3c(c(=O)n(C)c(=O)n3C)n2C(C)C)cc1,2%
Cc1c(NC(=O)/C(C#N)=C/c2ccc(-c3ccc(Cl)c(Cl)c3)o2)c(=O)n(-c2ccccc2)n1C,-5%
CC1CCC(NC(=O)c2ccc(CS(=O)(=O)c3cccc(C(F)(F)F)c3)o2)CC1 (configuration not stated),-1%
CC(NCC(=O)Nc1ccccc1C(=O)NC1CC1)c1ccco1 (configuration not stated),6%
CC(NC(=O)CNC(=O)c1cccc(Cl)c1)c1ccccc1 (configuration not stated),-9%
COc1ccc(OC)c(NCc2cccn2-c2nnc(N3CCC(C)CC3)s2)c1,2%
COc1ccccc1NS(=O)(=O)c1ccc2oc(SCC(=O)N3CCNC3=O)nc2c1,-10%
CC(C)c1nc(-c2c(N)n(C)c(=O)n(C)c2=O)sc1C(=O)C(C)(C)C,-5%
# Following part.
SMILES,VDR inh
C=CCN(CC=C)C(=S)Nc1ccccc1,-20%
Cc1cc(-c2ccc(C)c(S(=O)(=O)NCC3CCN(Cc4ccc(F)cc4)CC3)c2)on1,16%&8%
O=C(c1ccc2nc(-c3ccco3)c(-c3ccco3)nc2c1)N1CCN(c2ncccn2)CC1,-7%
N#CC1(NC(=O)COC(=O)CNC(=O)c2sc3ccccc3c2Cl)CCCCC1,0%
N/C(=N\N=C\c1ccc2c(c1)OCO2)c1nonc1N,-13%
FC(F)(F)c1cc(C(F)(F)F)c2ccc(N3CCN(c4ccc(Cl)cc4)CC3)nc2n1,-10%
C(C#CCCCCCCCCC[n+]1ccccc1)#CCCCCCCCCC[n+]1ccccc1,8%&-7%
Cc1nc2ncnn2c(C)c1CCC(=O)NCCC1=CCCCC1,-2%
Cc1ccccc1C1=NC(C(F)(F)F)(C(F)(F)F)c2c(n(C)c(=O)n(C)c2=O)N1,-6%
COc1ccc(-c2csc(NC(=O)COc3ccc(N(C)S(=O)(=O)c4ccc(C)cc4)cc3)n2)cc1,-14%
NC(=O)CC[C@H](NC(=O)c1ccc(F)cc1)C(=O)OCC(=O)Nc1ccc(N2CCOCC2)cc1,-7%
Cc1c(-c2ccc(Cl)cc2)c(=O)oc2c(CN3CCCC3)c(O)ccc12,8%
Cc1c(CNC2CCCC(C)C2C)c(C(=O)O)c(C)n1Cc1ccccc1 (configuration not stated),14%
Cc1ccc(S(=O)(=O)N2CCC(C(=O)OCCOc3cccc(C)c3)CC2)cc1,-17%
CN1CCN(CC(=O)N/N=C/c2ccc(F)c(F)c2)CC1,0%
CCNC(=O)c1c(NC(=O)c2nc(S(=O)(=O)CC)ncc2Cl)sc2c1CCCC2,?
COc1ccc(S(=O)(=O)N2CCOC2CNC(=O)C(=O)NCc2ccc3c(c2)OCO3)cc1 (configuration not stated),1%
CCN1CCc2nc3sc(C(=O)c4ccccc4)c(N)c3cc2C1,10%
COc1ccc(CCNC(=O)COC(=O)C2CCCCC2)cc1,4%
O=C(O)c1ccc2c(=O)n3c(nc2c1)/C(=C/c1ccc(Cl)c(Cl)c1)CC3,?
Cc1ccc(NC(=O)CN2CCc3cc4c(cc3C2)OCCCO4)cc1C,-1%
CC(=O)Nc1ccc(NC(=O)c2ccc(CSc3ccccc3)o2)cc1,-2%
C=CCN1C(=O)c2ccc(C(=O)OCC(=O)Nc3ccccc3OC)cc2C1=O,10%
CCOc1cc(/C=N/Nc2ccccc2Cl)ccc1OCC(=O)O,-13%
COc1ncccc1-c1nnn(-c2ccccc2)n1,-5%

# Part of the list above, with the structure last:
VDR inh | smiles
? | O=C(O)c1ccc2c(=O)n3c(nc2c1)/C(=C/c1ccc(Cl)c(Cl)c1)CC3
-1% | Cc1ccc(NC(=O)CN2CCc3cc4c(cc3C2)OCCCO4)cc1C

# Remaining list, next part
SMILES,VDR inh
CCOC(=O)CSc1nc2sc3c(c2c(=O)[nH]1)CC(C)(CC)OC3 (configuration not stated),-6%
Clc1cccc(/C=N/Nc2nc(Cl)nc3ccccc23)c1,3%
CN(C)c1ccc(C(=O)Nc2sc(Nc3ccccc3)nc2C(N)=O)cc1,0%
CN(C)CC(C)(C)CNCc1cc(=O)oc2ccc3ccccc3c12,17%
CC(C)=CC(=O)Nc1ccc(Br)cc1,-10%
O=C(CSc1cccc[n+]1[O-])Nc1cc(S(=O)(=O)N2CCOCC2)ccc1N1CCOCC1,-11%
CCOC(=O)c1ccc2ncc(C(=O)OCC)c(NCCN3CCOCC3)c2c1,-19%
Nc1[nH]c(N=NC(=O)c2ccc(F)cc2)c2ccccc12,1%
CCCCCCC[C@H](N)[C@H](O)C(=O)N(C)[C@@H](CCS(C)=O)C(=O)N[C@@H](Cc1ccc(O)cc1)C(=O)N[C@@H](Cc1ccc(O)cc1)C(=O)O (some centres not stated),-14%
Cn1c(O)c(/C=N/Nc2ccccc2)c(=O)n(C)c1=O,-21%
CCN(CC)CC(C)OC(=O)COc1ccc(OC)cc1 (configuration not stated),-2%
CC1(C)N=C(SCc2ccc(Cl)cc2)c2ccccc2N1,1%
Cn1c(N)c(C(=O)COC(=O)/C=C/c2ccccc2Cl)c(=O)n(C)c1=O,-18%
CCNC(=O)NC(=O)C(C)N1C(=O)NC(c2ccccc2)(c2ccccc2)C1=O (configuration not stated),9%
CCOCCCNC(c1ccccc1)c1ccncc1 (configuration not stated),-15%
C/C(=N\Nc1nc(-c2ccc(C)cc2C)cs1)c1cc2ccccc2oc1=O,-3%
COC(=O)c1cn(-c2ccccc2)nc1-c1cccnc1,-22%
CSc1ccccc1NC(=O)c1ccc2c(c1)CCN2S(C)(=O)=O,1%
COc1ccc2cc(CN(Cc3cccs3)Cc3nnnn3Cc3ccccc3)c(=O)[nH]c2c1,9%
COc1ccccc1C(C)NC(=O)Cc1ccsc1 (configuration not stated),-12%
CSc1nc(=NC(C)=O)ss1,?
COc1cccc(-c2nnc(SCc3nc4ccccc4[nH]3)n2N)c1,-5%
O=C(CNC(=O)c1ccccc1Cl)NCCc1cccs1,19%
CC(C)(C)c1nc(S(=O)(=O)c2ccc(Cl)cc2)c(N2CCOCC2)o1,-28%
O=C(N/N=C/C1CC2CCC1C2)c1ccc2c(c1)OCO2 (configuration not stated),-16%

# Part of the list above, as tab-separated lines:
molecule	VDR inh
Cn1c(O)c(/C=N/Nc2ccccc2)c(=O)n(C)c1=O	-21%
CCN(CC)CC(C)OC(=O)COc1ccc(OC)cc1 (configuration not stated)	-2%
CC1(C)N=C(SCc2ccc(Cl)cc2)c2ccccc2N1	1%
Cn1c(N)c(C(=O)COC(=O)/C=C/c2ccccc2Cl)c(=O)n(C)c1=O	-18%
CCNC(=O)NC(=O)C(C)N1C(=O)NC(c2ccccc2)(c2ccccc2)C1=O (configuration not stated)	9%
CCOCCCNC(c1ccccc1)c1ccncc1 (configuration not stated)	-15%
C/C(=N\Nc1nc(-c2ccc(C)cc2C)cs1)c1cc2ccccc2oc1=O	-3%
COC(=O)c1cn(-c2ccccc2)nc1-c1cccnc1	-22%
CSc1ccccc1NC(=O)c1ccc2c(c1)CCN2S(C)(=O)=O	1%
COc1ccc2cc(CN(Cc3cccs3)Cc3nnnn3Cc3ccccc3)c(=O)[nH]c2c1	9%
COc1ccccc1C(C)NC(=O)Cc1ccsc1 (configuration not stated)	-12%
CSc1nc(=NC(C)=O)ss1	?
COc1cccc(-c2nnc(SCc3nc4ccccc4[nH]3)n2N)c1	-5%
O=C(CNC(=O)c1ccccc1Cl)NCCc1cccs1	19%
CC(C)(C)c1nc(S(=O)(=O)c2ccc(Cl)cc2)c(N2CCOCC2)o1	-28%
O=C(N/N=C/C1CC2CCC1C2)c1ccc2c(c1)OCO2 (configuration not stated)	-16%

# (further entries)
SMILES,VDR inh
CC(C)c1ccc(NC(=O)COC(=O)C2CCCCC2)cc1,-24%
O=[n+]1c2c(n([O-])c3cc(Br)ccc31)CCC2,-8%
COc1ccc(CCNC(=O)c2cccc(S(=O)(=O)N3CCCC3)c2)cc1,-6%
O=C(NCc1ccon1)c1ccc(OC2CCN(CCc3ccccc3)CC2)cc1,11%
CC(C(=O)NC1CCCC1)N(C(=O)c1ccc(-c2ccccc2)[nH]1)c1ccccc1F (configuration not stated),-13%
O=c1c2cc(N3CCOCC3)ccc2[nH]c(=S)n1Cc1ccccc1Cl,0%
CC1(OC(=O)c2cccs2)C(=O)C=C2C=C(c3ccsc3)OC=C2C1=O (configuration not stated),9%
COc1ccc(CN2C(=O)NC3(CCCCCC3)C2=O)cc1F,-12%
Cc1nnc(NCc2ccco2)c2ccccc12,7%
Cc1cccc(-n2c(C)cc(C(=O)NC3CCCCC3)c2C)c1,-13%
O=C(Nc1ccnn1C1CCN(Cc2ccc(OC(F)F)cc2)CC1)C1CCCC1,-4%
O=C(CNC(=O)c1ccc(S(=O)(=O)N2CCCC2)cc1)N/N=C/c1ccccc1,-2%
CCCOc1ccc(/C(O)=C2/C(=O)C(=O)N(CCN(C)C)C2c2ccc(O)c(OC)c2)cc1 (configuration not stated),27%
Cc1c(N(C)C)nc2ccccc2c1N,16%
C[C@@]12CC[C@@H]3c4ccc(O)cc4CC[C@H]3[C@H]1C[C@@H](O)[C@H]2O,8%
CN(CC(=O)Nc1cccc(F)c1)CC(=O)Nc1ccc(Cl)cc1[N+](=O)[O-],15%
COc1ccc(C(OCC(O)CN(C)C2CCCCC2)c2ccc(OC)cc2)cc1 (configuration not stated),-24%
Clc1ccc(-c2nnc(CSc3nnc(-c4cccs4)o3)o2)cc1,5%
COc1ccc(NC(=O)NCc2c(-n3cccc3)sc3c2CCCC3)c(OC)c1,16%
O=C(NCC1CC1)c1ccc2c(c1)S(=O)(=O)c1cc(Cl)ccc1C2=O,-25%
Clc1ccccc1Cc1noc(CN2CCCCC2c2ccccn2)n1 (configuration not stated),0%
